Screens (PubChem BioAssay)
Vaccinia inh = blocks a specific stage of Vaccinia orthopoxvirus infection, primary screen, cell-based, single point. Vaccinia-infected cells, mCherry/Venus stage reporter fluorescence; hits give low values; some inactives read as strong as hits. activity change (mCherry), % (no concentration beside the values). actives 0.01% (n = 89,000);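 active means mCherry past -33% and 40 or more points under the early reporter, replicates agreeing; inconclusive means past -33% without that gap or agreement; tested in A549 cells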;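 further: scaled between vehicle wells and reference inhibitor wells; 23 nL library stock went into each well; one replicate is shown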
Vaccinia inh Venus = recorded beside Vaccinia inh, whose call it bears; activity change (Venus), %; measured here: Venus reporter, other viral stage;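 negative = less Venus signal; first of two replicates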
The depositor's hits bear a star; ? = inconclusive; . = no result given; & = joins results of further samples.

SMILES | Vaccinia inh | Vaccinia inh Venus
Cc1ccccc1-c1ccc2c(c1)O[C@@H](CN(C)C(=O)C1CC1)[C@@H](C)CN([C@H](C)CO)S2(=O)=O | 2 | -6
COCC(=O)Nc1ccc2c(c1)C(=O)N(C)C[C@H](OC)[C@H](C)CN(CC1CC1)[C@@H](C)CO2 | 2 | 7
C[C@@H]1CN([C@@H](C)CO)C(=O)Cc2cc(NS(=O)(=O)c3ccccc3)ccc2O[C@H]1CN(C)C(=O)Nc1ccccc1 | 12 | 8
CC(C)C#Cc1ccc([C@@H]2[C@@H](C#N)N(C(=O)C3CC3)[C@@H]2CO)cc1 | 17 | 5
Cc1noc(C)c1S(=O)(=O)Nc1ccc2c(c1)C(=O)N([C@@H](C)CO)C[C@H](C)[C@@H](CN(C)S(=O)(=O)c1ccc(F)cc1)O2 | 4 | -3
N#C[C@H]1[C@@H](c2ccccc2C2=CCCCC2)[C@H](CO)N1C(=O)c1ccccn1 | 4 | 1
C[C@H]1CN([C@@H](C)CO)C(=O)c2cc(NS(=O)(=O)c3ccc(Cl)cc3)ccc2O[C@H]1CN(C)C(=O)NC1CCCCC1 | -3 | -1
CC(=O)N(C)C[C@@H]1Oc2cc(-c3ccccc3)ccc2S(=O)(=O)N([C@@H](C)CO)C[C@@H]1C | 29 | 5
CCCNC(=O)N1[C@H](CO)[C@H](c2ccccc2-c2cccc(C)c2)[C@@H]1C#N | -2 | -7
COCCNC(=O)C[C@@H]1C[C@H]2c3cc(NC(=O)Nc4ccc(F)cc4)ccc3O[C@H]2[C@H](CO)O1 | 11 | 2
C[C@H]1CN([C@@H](C)CO)C(=O)c2c(c3ccccc3n2C)-c2ccccc2CO[C@@H]1CN(C)S(=O)(=O)c1ccsc1 | -30 | -32
C[C@@H]1CN([C@@H](C)CO)C(=O)c2cccc(NC(=O)c3ccncc3)c2O[C@@H]1CN(C)Cc1ccncc1 | 4 | 1
CCc1csc(N2[C@@H](C#N)[C@@H](c3ccc(-c4ccc(F)cc4)cc3)[C@@H]2CO)n1 | -32 | -25
O=C(Nc1ccc(F)cc1)N1C[C@H]2[C@@H](c3ccccc31)[C@H](CO)N2Cc1ccccc1Cl | -18 | -12
COCC(=O)N1CC(=O)N2[C@@H](CO)[C@@H](c3ccc(-c4ccccc4F)cc3)[C@@H]2C1 | -2 | -8
O=C(C[C@H]1C=C[C@@H](NC(=O)Nc2ccc3c(c2)OCO3)[C@H](CO)O1)NCCCN1CCOCC1 | 9 | 3
C[C@H](NC(=O)C[C@H]1CC[C@@H](NC(=O)C2CCOCC2)[C@@H](CO)O1)c1ccccc1 | 15 | 14
COc1ccccc1-c1cn(CC[C@@H]2CC[C@@H](NC(=O)C3CC3)[C@@H](CO)O2)nn1 | 5 | 2
COc1ccccc1-c1cn(CC[C@H]2CC[C@H](NC(=O)C3CCCCC3)[C@H](CO)O2)nn1 | -2 | -9
C[C@@H]1CCCCO[C@H](CN(C)S(C)(=O)=O)[C@H](C)CN([C@@H](C)CO)C(=O)c2cc(NC(=O)Nc3ccc4c(c3)OCO4)ccc2O1 | -5 | -13
CC(C)CC#Cc1cnc2c(c1)C(=O)N([C@@H](C)CO)C[C@@H](C)[C@H](CN(C)Cc1ccc3c(c1)OCO3)O2 | ? | .
CC(=O)N(C)C[C@H]1Oc2cc(C#Cc3ccccc3F)ccc2S(=O)(=O)N([C@@H](C)CO)C[C@H]1C | -29 | -21
C[C@H]1CCCCO[C@H](CN(C)Cc2ccc(Cl)c(Cl)c2)[C@@H](C)CN([C@@H](C)CO)C(=O)c2cc(NC(=O)Nc3ccccc3)ccc2O1 | -25 | -15
COc1ccc(S(=O)(=O)N(C)C[C@@H]2Oc3c(NC(=O)Nc4ccc5c(c4)OCO5)cccc3C(=O)N([C@@H](C)CO)C[C@@H]2C)cc1 | -7 | 1
O=C(N[C@H]1CC[C@@H](CCNS(=O)(=O)c2ccc(F)cc2)O[C@@H]1CO)C1CCOCC1 | -4 | -4
CCCNC(=O)C[C@@H]1CC[C@@H]2[C@H](COC[C@H](O)CN2C(=O)C2CCOCC2)O1 | 13 | 17
C[C@H](CO)N1C[C@H](C)[C@H](CN(C)S(=O)(=O)c2ccc(C#N)cc2)Oc2ncc(/C=C/c3ccccc3)cc2C1=O | ? | .
Cc1noc(C)c1NC(=O)Nc1ccc2c(c1)C(=O)N([C@@H](C)CO)C[C@@H](C)[C@@H](CN(C)Cc1ccc(Cl)c(Cl)c1)OCCCC[C@@H](C)O2 | ? | .
C[C@@H]1CN([C@H](C)CO)C(=O)Cc2cc(NS(C)(=O)=O)ccc2O[C@@H]1CN(C)Cc1ccc(Oc2ccccc2)cc1 | 5 | -8
CC(C)Cc1ccc(CN2CC[C@@H](NC(=O)c3ccccc3)C2)cc1 | -23 | -12
CCS(=O)(=O)N1CC(=O)N2[C@H](C1)[C@@H](c1ccc(C#CCC3CCCC3)cc1)[C@@H]2CO | ? | .
C[C@@H]1CN([C@H](C)CO)C(=O)Cc2cc(NC(=O)Cc3ccccc3)ccc2O[C@H]1CN(C)CC1CCCCC1 | -5 | 17
COc1ccc(NC(=O)Nc2ccc3c(c2)C(=O)N([C@H](C)CO)C[C@H](C)[C@@H](CN(C)CC2CC2)OCCCC[C@@H](C)O3)cc1 | 15 | -8
C[C@@H]1CN([C@@H](C)CO)C(=O)Cc2cc(NS(=O)(=O)c3ccccc3)ccc2O[C@H]1CN(C)C(=O)Nc1ccc(F)cc1 | 11 | 2
O=C(Nc1ccccc1F)N[C@@H]1CC[C@H](CCNS(=O)(=O)c2ccccc2)O[C@@H]1CO | -5 | -10
Cc1noc(C)c1NC(=O)Nc1ccc2c(c1)C(=O)N([C@@H](C)CO)C[C@H](C)[C@@H](CN(C)Cc1ccc3c(c1)OCO3)OCCCC[C@H](C)O2 | 9 | 9
C[C@H](O)C#Cc1ccc2c(c1)O[C@@H](CN(C)Cc1cncnc1)[C@@H](C)CN([C@H](C)CO)S2(=O)=O | 5 | 1
CCC(=O)N1C[C@H](C)[C@@H](OC)CN(C)C(=O)c2ccc(NC(=O)COC)cc2OC[C@@H]1C | 9 | 10
CCCNC(=O)N(C)C[C@@H]1Oc2cc(C#CC(C)(C)O)ccc2S(=O)(=O)N([C@H](C)CO)C[C@H]1C | 15&-2 | 7&3
CCC(=O)NC[C@H]1[C@@H](c2ccc(C3=CCCC3)cc2)[C@H](CO)N1C(C)=O | 16 | 14

Single records, as listed above. Screens in order: Vaccinia inh, Vaccinia inh Venus
Entry for `O=C(Nc1ccccc1F)N[C@@H]1CC[C@H](CCNS(=O)(=O)c2ccccc2)O[C@@H]1CO` = -5, -10
Entry for `C[C@@H]1CN([C@H](C)CO)C(=O)Cc2cc(NC(=O)Cc3ccccc3)ccc2O[C@H]1CN(C)CC1CCCCC1` = -5, 17

Following part:
SMILES | Vaccinia inh | Vaccinia inh Venus
C[C@H]1CN([C@@H](C)CO)S(=O)(=O)c2ccc(-c3ccc(C(=O)N(C)C)cc3)cc2O[C@@H]1CN(C)C(=O)C1CCOCC1 | 7 | 10
O=C(C1CC1)N1C[C@@H]2[C@H](c3ccccc31)[C@@H](CO)N2Cc1ccccc1Cl | -8 | -17
C[C@H]1CN([C@@H](C)CO)C(=O)c2cc(NS(=O)(=O)c3ccccc3)ccc2O[C@@H]1CN(C)C(=O)NC1CCCCC1 | 12 | 3
Cc1ccccc1-c1cnc2c(c1)C(=O)N([C@@H](C)CO)C[C@H](C)[C@H](CN(C)C(=O)c1ccncc1)O2 | -1 | 3
CCC(=O)N1[C@H](CO)[C@H](c2ccc(-c3ccc(C#N)cc3)cc2)C12CN(C(C)=O)C2 | 9 | -4
COc1ccccc1S(=O)(=O)N[C@@H]1CC[C@@H](CCNC(=O)C2CCCC2)O[C@H]1CO | -2 | 3
CC(C)CC#Cc1ccc([C@H]2[C@@H](CO)N3C(=O)CN(C(=O)c4cnccn4)C[C@@H]23)cc1 | -4 | -6
O=C(Nc1cc(F)ccc1F)N[C@H]1C=C[C@H](CC(=O)N2CCc3ccccc3C2)O[C@@H]1CO | 5 | 17
O=C(C[C@H]1C[C@H]2c3cc(NC(=O)NC4CCCCC4)ccc3O[C@H]2[C@H](CO)O1)NCCc1ccccc1 | 30 | 17
COCC(=O)Nc1ccc2c(c1)[C@@H]1C[C@@H](CC(=O)NC3CCCC3)O[C@@H](CO)[C@@H]1O2 | -1 | 2

Compounds from the list above containing a Cl atom:
SMILES | Vaccinia inh | Vaccinia inh Venus
C[C@H]1CN([C@@H](C)CO)C(=O)c2cc(NS(=O)(=O)c3ccc(Cl)cc3)ccc2O[C@H]1CN(C)C(=O)NC1CCCCC1 | -3 | -1
O=C(Nc1ccc(F)cc1)N1C[C@H]2[C@@H](c3ccccc31)[C@H](CO)N2Cc1ccccc1Cl | -18 | -12
C[C@H]1CCCCO[C@H](CN(C)Cc2ccc(Cl)c(Cl)c2)[C@@H](C)CN([C@@H](C)CO)C(=O)c2cc(NC(=O)Nc3ccccc3)ccc2O1 | -25 | -15
Cc1noc(C)c1NC(=O)Nc1ccc2c(c1)C(=O)N([C@@H](C)CO)C[C@@H](C)[C@@H](CN(C)Cc1ccc(Cl)c(Cl)c1)OCCCC[C@@H](C)O2 | ? | .
O=C(C1CC1)N1C[C@@H]2[C@H](c3ccccc31)[C@@H](CO)N2Cc1ccccc1Cl | -8 | -17

Remaining list, next part.
SMILES | Vaccinia inh | Vaccinia inh Venus
CCCNC(=O)[C@@H]1[C@@H](CO)[C@@H]2Cn3c(ccc(-c4cccc(F)c4)c3=O)[C@H]1N2C(C)=O | 6 | 3
O=C(c1ccccc1F)N1CC[C@@H]2[C@H]1c1cc(-c3ccccc3)ccc1N[C@@H]2CO | -5 | 2
O=C(C[C@@H]1CC[C@H](NC(=O)c2cccc(F)c2)[C@@H](CO)O1)NCc1ccc(Oc2ccccc2)cc1 | -20 | -13
CCNC(=O)[C@@H]1[C@@H](CO)[C@@H]2Cn3c(ccc(-c4ccc(F)cc4)c3=O)[C@@H]2N1Cc1cc(F)ccc1F | 8 | 9
CCCC#Cc1cnc2c(c1)C(=O)N([C@@H](C)CO)C[C@@H](C)[C@H](CN(C)C(=O)Cc1ccccc1)O2 | -11 | -15
C[C@@H]1CN([C@H](C)CO)C(=O)Cc2cc(NC(=O)Cn3cnnn3)ccc2O[C@@H]1CN(C)Cc1ccncc1 | -4 | -9
CC(C)CC#Cc1ccc2c(c1)O[C@@H](CN(C)C(=O)c1cnccn1)[C@@H](C)CN([C@H](C)CO)S2(=O)=O | -7 | -8
C[C@H]1CCCCO[C@H](CN(C)Cc2ccc3c(c2)OCO3)[C@@H](C)CN([C@@H](C)CO)C(=O)c2cc(NC(=O)CCC(F)(F)F)ccc2O1 | ? | .
O=C(Cc1ccncc1)NCC[C@@H]1CC[C@H](NC(=O)C2CCC2)[C@@H](CO)O1 | 8 | 5
O=C(C1CCCCC1)N1CC(=O)N2[C@H](CO)[C@@H](c3ccc(C#CCc4ccccc4)cc3)[C@H]2C1 | 6 | 4
O=C(O)C1=C[C@H](c2ccc3c(c2)Cc2ccccc2-3)C[C@H](OCCCCO)O1 | 4 | 0
COCC(=O)Nc1ccc2c(c1)C(=O)N(C)C[C@H](OC)[C@@H](C)CN(CC1CCCCC1)[C@@H](C)CO2 | -12 | -11
Cc1ccccc1S(=O)(=O)N1CC[C@@H]2[C@H]1c1cc(-c3ccccc3F)ccc1N[C@@H]2CO | -9 | -9
C[C@@H]1CN([C@@H](C)CO)C(=O)c2cc(NC(=O)Cc3ccccc3)ccc2O[C@@H](C)CCCCO[C@H]1CN(C)C(=O)Nc1cccc2ccccc12 | 22 | 18
O=C(C[C@H]1CC[C@@H](NC(=O)CC2CC2)[C@H](CO)O1)NCc1ccc(Cl)cc1 | 17 | 20
C[C@@H]1CN([C@@H](C)CO)C(=O)c2cc(NC(=O)NC3CCCCC3)ccc2O[C@@H](C)CCCCO[C@@H]1CN(C)Cc1ccc(C(F)(F)F)cc1 | ? | .
CN1CCN(C(=O)C[C@@H]2CC[C@@H](NS(=O)(=O)c3cccc(F)c3)[C@@H](CO)O2)CC1 | 13 | -1
C[C@H]1CN([C@@H](C)CO)S(=O)(=O)c2ccc(-c3cccnc3)cc2O[C@@H]1CN(C)Cc1cncnc1 | 20 | 17
CC(C)c1cn(CC[C@H]2CC[C@@H](NC(=O)C3CCCC3)[C@H](CO)O2)nn1 | 1 | 2
CC(=O)NC[C@@H]1[C@@H](c2ccc(-c3ccccc3)cc2)[C@@H](CO)N1C(=O)C1CC1 | 7 | 13
O=C(C[C@@H]1C[C@H]2c3cc(NS(=O)(=O)c4ccc(F)cc4)ccc3O[C@H]2[C@@H](CO)O1)NC1CCCC1 | 4 | 2
O=C(C[C@H]1CC[C@H]2[C@@H](COC[C@@H](O)CN2S(=O)(=O)c2cccc(Cl)c2)O1)NC1CCCC1 | -9 | -4
COc1ccc(NC(=O)N(C)C[C@H]2Oc3c(NS(=O)(=O)c4ccc(OC)cc4)cccc3C(=O)N([C@@H](C)CO)C[C@H]2C)cc1 | -7 | -1
O=C(Cc1ccncc1)Nc1ccc2c(c1)[C@H]1C[C@H](CC(=O)N3CCc4ccccc4C3)O[C@@H](CO)[C@H]1O2 | 10 | 12
C[C@H](CO)N1C[C@H](C)[C@H](CN(C)S(=O)(=O)c2ccccc2)Oc2ccc(NC(=O)Nc3ccc(F)cc3)cc2CC1=O | -15 | -9
COCC(=O)N(C)C[C@H]1[C@H](c2ccc(-c3cccnc3)cc2)[C@H](CO)N1C(C)=O | 6 | 8
CO[C@H]1CN(C)C(=O)c2ccc(NS(=O)(=O)c3ccc(F)cc3)cc2OC[C@H](C)NC[C@H]1C | 10 | 0
COc1ccccc1NC(=O)N1CC[C@@H]2[C@H]1c1cc(C#Cc3cccc(F)c3)ccc1N(C)[C@@H]2CO | 2 | -1

This is a subset; the hit share may differ from the screen's.
